High-throughput results (PubChem)
RanGTP-Impb inh – disruptors of Ran-importin-beta complex formation – biochemical, FRET, CFP-Ran, YFP-importin-beta, homogeneous, primary screen. AID 2216. 300,000 compounds, 1.1% hits. cell-free CFP-Ran/YFP-importin-beta FRET ratio. inhibition, % (no concentration beside the values);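 active = most replicates above 15%; inconclusive = exactly half above 15%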;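 note: 0% = DMSO wells and 100% = Ran loaded with GDP instead of GTP; wells of about 40 µL received 100 nL stock; the first replicate is given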
HNF4A DNA FP – change in binding of human HNF4 alpha to DNA; HNF4a-FITC DNA binding, fluorescence polarization, 1 h; activity change, % at 10 µM; 360,000 compounds, 0.3% hits; in the data active = activity change above about 30%, passing the limit was not always enough;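 note: controls were the assay level and a saturating level of protein; the project sought stronger binding though the title names inhibitors; some compounds called inactive have numbers as strong as hits; positive values seem to mean higher polarization but the record does not say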
Target sequence (P41235 whole entry, looked up): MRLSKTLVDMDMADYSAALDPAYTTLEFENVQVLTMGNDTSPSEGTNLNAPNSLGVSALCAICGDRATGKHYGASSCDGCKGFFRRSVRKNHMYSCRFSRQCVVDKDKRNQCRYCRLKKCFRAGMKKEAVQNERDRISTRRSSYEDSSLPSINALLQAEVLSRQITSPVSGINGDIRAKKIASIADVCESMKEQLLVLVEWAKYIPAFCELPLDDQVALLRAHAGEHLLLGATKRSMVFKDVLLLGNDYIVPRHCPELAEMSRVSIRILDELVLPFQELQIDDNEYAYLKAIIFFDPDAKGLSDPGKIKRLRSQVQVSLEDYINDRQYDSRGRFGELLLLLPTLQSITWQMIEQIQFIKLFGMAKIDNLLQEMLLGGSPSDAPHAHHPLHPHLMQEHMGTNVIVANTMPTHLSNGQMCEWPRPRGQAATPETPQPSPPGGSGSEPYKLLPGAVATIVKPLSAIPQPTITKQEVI
B2AR ag – human beta-2 adrenergic receptor agonism by FAP; P07550; Am2.2-beta2AR cells, FAP receptor internalization, flow cytometry; reference of the scale not given here; response, % (test concentration not listed); 340,000 compounds, 0.43% hits;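 active = response above a set limit, near 3 SD of response in nonfluorescent compounds, cut at about 42% in these data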;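 note: stock transfer was 100 nL into about 11 µL; a reference agonist was the positive control; negative values mostly stem from fluorescent compounds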
Target sequence (P07550 whole entry, looked up): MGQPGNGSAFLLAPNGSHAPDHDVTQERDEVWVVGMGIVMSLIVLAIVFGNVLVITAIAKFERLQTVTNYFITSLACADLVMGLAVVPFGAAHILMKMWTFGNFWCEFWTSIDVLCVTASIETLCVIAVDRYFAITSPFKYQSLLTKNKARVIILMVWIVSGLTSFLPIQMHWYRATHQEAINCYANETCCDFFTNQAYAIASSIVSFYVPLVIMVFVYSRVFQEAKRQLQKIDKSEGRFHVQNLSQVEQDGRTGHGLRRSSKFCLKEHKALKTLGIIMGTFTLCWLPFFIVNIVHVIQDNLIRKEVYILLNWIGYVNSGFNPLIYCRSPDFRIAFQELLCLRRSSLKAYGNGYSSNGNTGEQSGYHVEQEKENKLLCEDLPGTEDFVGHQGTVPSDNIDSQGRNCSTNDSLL
Vif A3G – inhibitors of Vif binding to APOBEC3G peptide, primary screen, biochemical, TR-FRET, GST-Vif 1-94, biotin-A3G peptide, dose response retest (AID 1117319) | TR-FRET GST-Vif / biotin-A3G peptide binding; higher % means a stronger effect; test concentration not given here; strong numbers were not always called active | inhibition, %; hits with a dose series show IC50 in µM | 260,000 compounds, 0.57% hits;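 active = above the screen mean plus three standard deviations and confirmed in dose response; inconclusive = results disagree or hit not tested in dose response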;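 note: Vif residues 1-94 fused to GST binding biotinylated APOBEC3G peptide 110-148; 0% = full assay without inhibitor and 100% = GST in place of GST-Vif; retest series ran down from 100 µM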
Calb FLC – affects C. albicans growth with fluconazole; C. albicans CaCi-2 (fluconazole-resistant clinical isolate) + fluconazole, Alamar Blue growth, 48 h; growth inhibition, % (concentration not given with the values); 300,000 compounds, 0.57% hits;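 active = most replicates above 75%; inconclusive = exactly half above 75%; inactive = most below 75%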;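 note: all wells also contain fluconazole at 8 µg/ml as a sub-toxic cotreatment; 0% = median of DMSO wells and 100% = median of geldanamycin control wells; wells of about 8 µL received 7.5 nL stock; the first replicate is given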
LANA-H2B inh – blocks KSHV LANA binding to histone H2A/H2B; Q9QR71; cell-free LANA-H2A/H2B peptide, fluorescence polarization; inhibition, % (no concentration beside the values); 320,000 compounds, 0.6% hits; AID 2629; in the data active = inhibition mostly above about 10%, no sharp cut-off; inactive = mostly below about 6.7%;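 note: stock transfer was 7.5 nL into about 10 µL; 0% = median of vehicle wells and 100% = median of positive control wells; one replicate is shown; the record names a cut of 25% in any replicate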
ALR inh – blocks human ALR sulfhydryl oxidase activity; P55789; purified ALR, DTT oxidation, H2O2 HRP-luminol luminescence; inhibition, % (concentration not given with the values); 290,000 compounds, 3.8% hits; AID 485317;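 active = mean and each replicate at 75% or more; inconclusive = only one of the two met; inactive = neither met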;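 note: stock transfer was 7.5 nL into about 7.5 µL; 0% = neutral wells and 100% = wells with inactivated enzyme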
Target sequence (P55789 whole entry, looked up): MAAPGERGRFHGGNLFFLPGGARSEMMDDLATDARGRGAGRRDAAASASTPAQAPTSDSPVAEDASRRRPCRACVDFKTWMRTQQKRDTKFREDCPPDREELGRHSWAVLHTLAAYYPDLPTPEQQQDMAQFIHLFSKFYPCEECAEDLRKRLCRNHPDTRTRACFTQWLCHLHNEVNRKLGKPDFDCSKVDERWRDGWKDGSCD
An asterisk follows results filed as active; ? = inconclusive; · = no result given; & = joins results of further samples.

SMILES | RanGTP-Impb inh | HNF4A DNA FP | B2AR ag | Vif A3G | Calb FLC | LANA-H2B inh | ALR inh
O=C(CSc1nc2ccccc2[nH]1)Nc1c(F)cccc1F | 1.1 | 4.5 | -2 | 11% | 2 | -0.2 | -2
CC(=O)Cc1nsc(NC(=O)c2oc(-c3ccccc3Cl)cc2C)n1 | 3.8 | -0.4 | 15 | 6% | -2 | 0.1 | 2
O=C(C[C@@H]1C/C=C\C[C@H](NC(=O)OCC2c3ccccc3-c3ccccc32)C(=O)OC[C@H]2CCCN2C1=O)N[C@H](CO)Cc1ccccc1 | · | 2.5 | 3 | · | · | · | -3
CC(C)(C)C(=O)OCOC(=O)[C@@H]1N2C(=O)[C@@H](N=CN3CCCCCC3)[C@H]2SC1(C)C | · | -3.0 | 5 | · | · | -5.0 | -2
C=CCNC(=O)c1onc(CSc2ccc(F)cc2)c1C(=O)NCC=C | -0.3 | -5.1 | -9 | · | -7 | -4.1 | -5
Cc1noc(C)c1COC(=O)c1cc(F)c(F)cc1Cl | -1.2 | -1.4 | -8 | -6% | -11 | 2.7 | -1
COCCSc1ccccc1C(=O)NCCc1ccccc1 | -3.2 | 0.0 | 6 | -16% | -6 | -2.6 | -8
COc1ccccc1OCCCOc1ccc(/C=C2\SC(=O)NC2=O)cc1OC | 1.2 | 1.9 | 14 | · | 2 | -1.8 | 12
O=C1CCc2cc(S(=O)(=O)N3CCC(C(=O)NC4CCCCCCC4)CC3)ccc2N1 | · | 1.2 | -2 | 0% | · | · | ·
CCOC(=O)C=C1CCN(c2ncc(C(F)(F)F)cc2Cl)CC1 | -1.1 | 1.9 | -2 | 27% | 0 | 0.0 | -4
CC(=O)C1CCC2C3CCC4=CC(=O)C=CC4(C)C3CCC12C (centres undefined) | · | 1.5 | 3 | 11% | · | · | ·
CCN(CC)c1ccc(C(=O)N/N=C(\C)c2ccc(O)cc2)cc1 | -3.4 | 0.5 | 6 | 2% | -2 | 0.5 | 94*
O=Cc1ccc(OC(=O)C2CC(=O)N(c3ccc(F)cc3)C2)cc1 (centres undefined) | 9.8 | -3.6 | -2 | -4% | -2 | 3.5 | 7
O=C(O)c1cccc2cccnc12 | -1.0 | -0.5 | -6 | 3% | -3 | · | ·
CCCOc1ccccc1Cn1c(=O)oc2ccc(C)cc21 | 3.2 | 3.1 | -3 | -2% | 3 | 2.4 | -1
CCCCN(CCCC)CCNC(=O)c1cn(CC)c2ccc(S(=O)(=O)N3CCCC3)cc2c1=O | 0.7 | -4.1 | 7 | · | 1 | -3.7 | 3
O=C(Cn1nc(-c2ccccc2)oc1=O)OCC(=O)c1ccc(F)c(F)c1 | · | -2.0 | -5 | -15% | · | -3.1 | ·
O=C(CNC(=O)c1cc2c(n(-c3ccccc3)c1=O)CCCC2=O)c1ccccc1 | -0.6 | 0.8 | 3 | · | -6 | -2.8 | 0
CCN(CC)CCCOc1ccc(C)cc1Br | 1.4 | -1.5 | -8 | 17% | -5 | -6.2 | -9
CC(=O)c1ccccc1NC(=O)COC(=O)c1cc(C)oc1C | · | -0.4 | -2 | 6% | · | -8.3 | 1
Cc1sc(-c2ccncc2)nc1OC(=O)c1ccc(Cl)cc1 | -9.6 | -0.9 | 5 | -5% | -1 | 1.1 | 3
O=C(NC(=S)Nc1nc2c(s1)CSc1ccccc1-2)c1ccccc1 | -0.6 | 5.5 | 1 | 0% | 43 | -2.4 | -7
Cc1ccc(CN2CCN(/N=C/c3ccc(C)s3)CC2)c(C)c1 | 0.7 | -0.3 | -2 | -11% | 6 | -1.0 | -2
CC(C)(C)C1CCc2c(sc3ncn(N)c(=N)c23)C1 (centres undefined) | 4.2 | -0.2 | -10 | 11% | 4 | -0.3 | -3
O=C(COc1ccccc1[N+](=O)[O-])NCC1(N2CCOCC2)CCCCC1 | · | -1.0 | -4 | · | · | -3.2 | 12
C=COCCNC(=O)C(=O)NCC(C)C | 6.9 | 1.2 | -2 | 3% | 9 | -3.7 | 1
COc1ccc(/C=N/NC(=O)CN(C2=NS(=O)(=O)c3ccccc32)c2ccccc2)cc1 | -0.9 | 2.5 | -4 | 22% | ? | -4.1 | 0
COCCN(C(=O)CNC(=O)c1ccco1)C(C(=O)NC1CCCC1)c1ccccc1 (centres undefined) | 3.8 | 0.6 | 3 | · | 3 | -2.6 | 1
CC(=O)N(CCCCN1C(=O)c2ccccc2C1=O)c1ccc(C)cc1 | 2.0 | -1.0 | -3 | -6% | · | 0.5 | 3
COCCOc1nc2c(c(=O)n(C)c(=O)n2C)n1CCc1ccccc1 | 5.3 | -1.9 | 0 | 0% | -12 | 11* | 0
O=C(NNc1ccc([N+](=O)[O-])cc1)c1ccco1 | 2.3 | -2.6 | 14 | 13% | -4 | -6.9 | 99*
CCOc1cccc2sc(N(CCCN(C)C)C(=O)Cc3ccccc3)nc12 | 5.2 | -3.1 | -1 | 3% | -7 | -1.1 | ·
O=C1C=C(NCc2ccccc2)c2ccccc2C1=O | ? | 0.0 | 3 | · | 99* | · | ·
O=C(O)CC(SCC(=O)Nc1ccc(Cl)c(S(=O)(=O)N2CCOCC2)c1)C(=O)O (centres undefined) | -5.0 | -1.2 | -9 | 1% | 10 | 7.6 | 69
COc1ccc(OC)c(NC(=S)NN2CCOCC2)c1 | ? | 2.6 | 20 | 7% | 5 | 2.6 | ·
CC(=O)NS(=O)(=O)c1ccc(N=c2ssc3c2-c2ccc(C)cc2NC3(C)C)cc1 | 0.2 | 0.5 | 13 | 18% | 29 | -5.8 | 100*
Cc1cc(C)c2nc(SCC(=O)N3CCCCC3)c(C#N)cc2c1 | -1.9 | -3.7 | -10 | -17% | -6 | · | ·
CC(=O)NS(=O)(=O)c1cccnc1Nc1ccc(Cl)cc1 | 0.8 | -0.1 | -1 | 3% | -8 | 1.9 | -8
CCOc1cc(/C=C2\CCC/C(=C\c3cc(Cl)c(O)c(OCC)c3)C2=O)cc(Cl)c1O | -6.4 | 7.5 | -20 | 2% | -8 | -4.6 | -4
CCCCNC(=O)CCn1nc(-c2ccc(Cl)cc2)ccc1=O | -2.0 | 3.7 | 3 | · | 15 | 1.4 | -9
COc1ccc(NS(=O)(=O)c2cccc(C(=O)NCC(c3ccco3)N3CCCC3)c2)cc1 (centres undefined) | -1.3 | -1.7 | 2 | -10% | · | 3.0 | -2
Cc1ccc(C2C(C#N)=C(N)OC3=C2C(=O)CC(C)(C)C3)s1 (centres undefined) | ? | -1.6 | 10 | 21% | -1 | 4.2 | 9
CC(C)(CN=C1NS(=O)(=O)c2ccccc21)CNC(=O)c1ccccc1 | 1.4 | 0.9 | -2 | -3% | 8 | -1.7 | -7
CCCCn1c(SCC(=O)OC)nc2c1c(=O)n(C)c(=O)n2C | -3.4 | -2.2 | 11 | 6% | 7 | -2.6 | -1
CCCCC(=O)NC1(C(F)(F)F)C(=O)N(CC(C)C)C2=C1C(=O)CC(C)(C)C2 (centres undefined) | -1.4 | 0.8 | 7 | 1% | -15 | -0.9 | -2
C#CCC(NC(=O)c1ccc(C#N)cc1)C(=O)NCCC (centres undefined) | · | 2.0 | -2 | · | · | 3.8 | 23
COc1ccc(CNC(=O)C2(CC3CC(c4ccccc4)=NO3)CCNCC2)cc1 (centres undefined) | -2.9 | -0.1 | -1 | · | -8 | 3.2 | -12
COC(=O)Cn1cnc2c(C#N)c3n(c2c1=O)CCCCC3 | -0.1 | 2.7 | -4 | -1% | -2 | -5.8 | -10

The final five records of the section above lead into the next:
SMILES | RanGTP-Impb inh | HNF4A DNA FP | B2AR ag | Vif A3G | Calb FLC | LANA-H2B inh | ALR inh
CCCCn1c(SCC(=O)OC)nc2c1c(=O)n(C)c(=O)n2C | -3.4 | -2.2 | 11 | 6% | 7 | -2.6 | -1
CCCCC(=O)NC1(C(F)(F)F)C(=O)N(CC(C)C)C2=C1C(=O)CC(C)(C)C2 (centres undefined) | -1.4 | 0.8 | 7 | 1% | -15 | -0.9 | -2
C#CCC(NC(=O)c1ccc(C#N)cc1)C(=O)NCCC (centres undefined) | · | 2.0 | -2 | · | · | 3.8 | 23
COc1ccc(CNC(=O)C2(CC3CC(c4ccccc4)=NO3)CCNCC2)cc1 (centres undefined) | -2.9 | -0.1 | -1 | · | -8 | 3.2 | -12
COC(=O)Cn1cnc2c(C#N)c3n(c2c1=O)CCCCC3 | -0.1 | 2.7 | -4 | -1% | -2 | -5.8 | -10
COc1ccc(N(C)S(=O)(=O)c2ccc(Cl)c(C(=O)NCC(C)(C)N3CCOCC3)c2)cc1 | · | 1.5 | -4 | 13% | · | -10 | -1
CC1(C)C(C#N)=C(N)Oc2c1c(=O)oc1ccccc21 | 4.1 | 1.0 | 2 | · | -2 | 2.2 | -17
CSc1ccc(/C=C(/NC(=O)c2ccc(C)cc2)C(=O)Nc2cccc(C)c2)cc1 | 4.4 | 3.1 | -5 | -7% | -17 | -7.8 | -1
O=C(NC(=S)Nc1ccc(CN2CCOCC2)cc1)c1ccco1 | -0.9 | -2.5 | -7 | 11% | 20 | 0.4 | 6
CCc1cccc(NC(=O)C2CCN(S(=O)(=O)c3c(C)noc3C)CC2)c1 | 2.4 | 1.1 | -1 | -1% | -49 | 1.3 | -10
CCN(CC)S(=O)(=O)c1ccc(NC(=O)c2ccc(OCC3CCCO3)cc2)cc1 (centres undefined) | · | 2.8 | 2 | 0% | · | -1.0 | -2
CN(C)c1ccccc1C(=O)N1CCCC(Nc2ccc(F)cc2)C1 (centres undefined) | 5.2 | 2.0 | -7 | · | -10 | -0.2 | 99*
C/C(=N/NC(=O)CNC(=O)c1ccncc1)c1ccco1 | -0.3 | -0.3 | -5 | ? | 1 | 5.1 | 9
O=C(NCc1cccc(Cl)c1)N1CCN(S(=O)(=O)c2ccccc2F)CC1 | 0.7 | -2.5 | 2 | -6% | 11 | 8.1 | -3
O=C(Cc1csc(N2CCOCC2)n1)N/N=C/c1cccc(O)c1 | -4.2 | 2.6 | 2 | 3% | -8 | 4.4 | 20
O=C(NCc1ccccc1)c1cccnc1 | -2.5 | -1.4 | 1 | · | -11 | 2.0 | -1
CC(C)N1CCC(=NNC(=O)c2ccccc2[N+](=O)[O-])CC1 | -0.8 | 0.0 | 3 | · | -3 | 9.0 | -16

LANA-H2B inh, what is marked active above
mol | RanGTP-Impb inh | HNF4A DNA FP | B2AR ag | Vif A3G | LANA-H2B inh | ALR inh
COCCOc1nc2c(c(=O)n(C)c(=O)n2C)n1CCc1ccccc1 | 5.3 | -1.9 | 0 | 0% | 11* | 0

Following part:
SMILES | RanGTP-Impb inh | HNF4A DNA FP | B2AR ag | Vif A3G | Calb FLC | LANA-H2B inh | ALR inh
O=C(NCCCN1CCCC1=O)c1cccc(S(=O)(=O)Nc2ccc(Br)cc2)c1 | 2.0 | -2.8 | 0 | 2% | 1 | 3.3 | -7
O=C(CSc1nccn(-c2cccc(F)c2)c1=O)Nc1ccc(Cl)cc1F | -0.5 | 4.0 | -6 | · | -4 | -0.2 | 99*
Nc1ccc(C(=O)O)cc1 | 2.9&4.6&0.4 | -2.2&-2.2&4.8 | 2&4&3 | · | -10&-5&6 | -0.2&-0.7&-9.9 | -17&-24&-9
O=C(c1ccccc1F)n1c2c(c3ccccc31)CCCC2 | -0.8 | 1.3 | 5 | -3% | -9 | 3.7 | -3
CCCCOc1ccc(-c2nnc(N)s2)cc1 | 3.0 | 1.9 | -22 | -6% | -5 | -2.8 | -16
NC(=O)c1cn(-c2ccccc2)nc1-c1cc2ccccc2oc1=O | 3.9 | 1.6 | -21 | 0% | 4 | 0.5 | -1
O=C1c2ccccc2NC(c2ccc(F)cc2)N1Cc1ccccc1 (centres undefined) | -1.3 | -0.7 | 18 | -2% | 2 | -0.6 | 2
